# BJeLR lethal = BJeLR cell viability loss | BJeLR (HRASV12) viability, CellTiter-Glo ATP luminescence, 48 h; reference of the scale not given here | AID 1554 | 0.17% of 300,000 active | inhibition, % (concentration not given with the values);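 active means replicate mean above 50%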;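 further: 50 nL library stock added to about 25 µL; numbers are from one replicate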
# Bead autofluor = compound fluorescence in toxin protease inhibitor counterscreen; compound autofluorescence counterscreen, microsphere flow cytometry; active compounds read high; fluorescence intensity (no concentration beside the values); 3.1% of 360,000 active; AID 624483;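 active means at least 3 SD above the mean of all compounds, about 16000 in these data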;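 further: 100 nL of 1 mM stock went into each well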
# RN4220 kill = kills Staphylococcus aureus RN4220; S. aureus RN4220 growth, OD600, 16 h; inhibition, % (test concentration not listed); 0.33% of 330,000 active; AID 1259311;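 active means z-score of -3 or lower and OD600 up to 0.18 on both plates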;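 further: plate controls were untreated cells for no effect and reference antibiotic for full effect; stock transfer was 100 nL into about 80 µL; one replicate is shown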
# Mtb hypoxia rep = Mtb hypoxia fluorescent reporter inhibition; fluorescence inhibition, % (test concentration not listed); 0.1% of 300,000 active; M. tuberculosis hypoxia-regulated fluorescent reporter, fluorescence;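 active means 35 to 45% if threefold the growth effect, above 45% if 1.5-fold the growth effect; inactive means the rest, general growth blockers included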;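 further: wells of about 50 µL received 100 nL stock; 0% = vehicle wells and 100% = reference inhibitor wells; whole bacteria with a GFP reporter of the hypoxia response; strong numbers were not always called active; many hits fall short of the cut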
# PrP 5UTR inh = inhibition of PrP 5' UTR reporter expression. inhibition, % (test concentration not listed). AID 488862. 0.35% of 340,000 active. cell-based PrP 5' UTR mRNA reporter, plate reader;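 active means every replicate at 50% or more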;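 further: 0 = median of the neutral control wells; tested in H4 reporter cells; numbers are from one replicate; inactives centre near -14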
# Sa ugtP lethal = kills S. aureus RN4220 lacking UgtP. growth inhibition, % (concentration not given with the values). S. aureus RN4220 ugtP deletion, OD600 growth, 16 h; some inactives read as strong as hits. 0.54% of 330,000 active;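 active means z-score under -3 and OD600 up to 0.15 on both plates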;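 further: plate controls were untreated wells for no effect and antibiotic for full effect; wells of about 80 µL received 100 nL stock; the first replicate is given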
# Mtb hypoxia rep growth = second read-out of Mtb hypoxia rep, no call of its own (marks repeat the call); growth inhibition, %; measured here: M. tuberculosis growth (absorbance);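 0% = vehicle and 100% = reference antibiotic; read after six days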
# * = called active by the depositor; · = not tested or not shown.
smiles	BJeLR lethal	Bead autofluor	RN4220 kill	Mtb hypoxia rep	Mtb hypoxia rep growth	PrP 5UTR inh	Sa ugtP lethal
O=C(O)c1cccnc1SCc1cccc(Cl)c1	0.0	4412	7.1	-2.7	3.7	-18.2	-1.0
CN(Cc1nc(-c2ccc(C(F)(F)F)cc2)no1)C1CCOCC1	-3.4	3833	5.5	8.6	1.5	-15.4	4.5
CSc1nc2c(cc1C#N)CCC2	8.2	4405	4.5	16.8	-2.0	-38.1	9.2
CC(C)c1nc(SCC(=O)Nc2ccc3c(c2)OCCO3)c2c(=O)n(C)c(=O)n(C)c2n1	-1.2	5678	-13.1	0.0	-0.4	-23.1	-1.5
COc1ccc(CNc2ncnc(N)n2)cc1	6.5	2946	1.2	-10.5	3.1	-10.1	-3.4
CCOC(=O)N1CCN(C(=O)c2cnsn2)CC1	-4.7	3318	1.0	·	·	-13.8	9.6
O=C(Cc1ccccc1Cl)NCCCn1ccnc1	3.9	6952	2.5	9.0	7.4	-1.7	16.3
C=CCc1cc(Cl)ccc1OCCNCCN1CCOCC1	-8.3	4565	5.0	4.9	-1.7	-18.5	0.1
Cc1nn(C(C)C(=O)NCc2ccccc2Cl)c(=O)c2c1sc1ccccc12 (configuration not stated)	-0.7	3779	7.2	10.8	9.2	-26.8	-8.6
O=C1CC(c2ccc(O)cc2)Oc2cc(OC3OC(CO)C(O)C(O)C3O)cc(OC3OC(CO)C(O)C(O)C3O)c21 (configuration not stated)	·	·	-2.2	-3.4	-5.7	·	-6.5
C/C(=N/NC(=O)c1cc(C)[nH]n1)c1ccco1	-2.9	4247	·	·	·	-33.2	·
CCOC(=O)c1c(-c2cccc3ccccc23)csc1NC(=O)C1C2CCC(O2)C1C(=O)O (configuration not stated)	5.4	2379	10.4	11.3	10.5	-6.9	19.0
CCO[C@@H]1OC(C(=O)N2CCOCC2)=C[C@H](C2CC2)[C@H]1CCCO	-3.6	4171	·	·	·	1.4	·
O=C(CN1C(=O)S/C(=C\C=C\c2ccccc2)C1=O)Nc1ccccc1C(=O)O	7.3	3556	·	·	·	-5.9	·
CC(C(=O)CC(=O)OC(C)(C)C)C(O)c1ccc(C(F)(F)F)cc1 (configuration not stated)	·	·	0.6	-2.6	3.5	·	-1.1
O=C(NN=C1CCCC1)c1cc(-c2ccc(F)cc2)nc2ccccc12	-9.2	3285	2.3	13.1	11.2	-9.8	8.3
N#Cc1nc(-c2ccc(OCc3ccccc3)cc2)oc1NCCCN1CCOCC1	16.4	3055	0.3	14.6	10.8	-10.0	85.2*
CN1CCN(N=Cc2nc(-c3cccc([N+](=O)[O-])c3)n3ccccc23)CC1	·	·	5.5	0.2	3.5	·	12.3
CCOc1cc(-c2noc(CCC(=O)N3CCOCC3)n2)ccc1OC	-7.8	4235	5.9	12.0	11.8	-8.5	1.5
CCC(=O)c1cn(CC(=O)Nc2cccc(OC)c2)c2ccccc12	-6.3	·	-0.4	1.9	-2.0	-16.1	9.3
CCCc1ccc(OC(=O)c2ccc(O)cc2Cl)cc1	6.0	2789	9.4	-2.3	-2.2	-66.3	-8.3
O=C(Oc1ccc(Cl)c2cccnc12)c1cccnc1	-0.9	3466	36.9	12.7	15.2	-18.9	24.5
CC(NC(=O)c1ccco1)C(=O)N1CCCCC1 (configuration not stated)	2.4	5182	0.3	0.7	3.9	-20.5	-2.2
CC1(C)CC(=O)C=C(Nc2ccccc2N)C1	-7.2	4127	2.3	4.2	5.6	11.4	8.4
CN(NC1OC(=O)c2ccccc21)c1ncc(C(F)(F)F)cc1Cl (configuration not stated)	7.5	3547	5.1	5.2	7.3	-20.8	6.0
N#Cc1cccc(NC(=O)NCCc2c[nH]c3ccccc23)c1	7.7	6139	-0.7	0.8	9.4	-3.0	10.2
CC1(OC(=O)CCc2ccccc2)C(=O)C=C2C=C(c3ccc(C#N)cc3)N(C3CCCCC3)C=C2C1=O (configuration not stated)	-1.1	2769	1.0	6.8	3.5	-12.7	3.4
Brc1ccc(-c2noc(COc3ccc4c(c3)CCC4)n2)o1	0.1	4186	4.7	3.3	7.1	-2.6	12.2
CCOC(=O)N1CCN(C(=O)c2cn(CC)c3ccc(S(=O)(=O)N4CCOCC4)cc3c2=O)CC1	0.9	4212	-6.7	-7.8	-9.2	-31.5	-2.5
CCC(C)(C)NC(=O)C(c1ccco1)N(C(=O)c1csnn1)c1cccc(F)c1 (configuration not stated)	8.4	4093	-2.2	-12.0	-4.8	-10.2	-4.3
C[C@H](C(O)c1ccccc1)N(C)C(=O)CN (some centres not stated)	-2.9	3958	·	·	·	-12.1	·
c1ccc(CSc2ncnc3ccccc23)cc1	-7.3	2357	8.0	-8.8	5.9	-33.3	18.6
Cc1ccc(C(=O)N/C(=C\c2ccc(-c3ccccc3[N+](=O)[O-])o2)C(=O)NCCCN(C)C)cc1	1.5	3371	-1.0	-5.9	1.8	-28.5	3.7
COC(=O)C1=C(C(=O)OC)C2Nc3ccccc3[C@@]23CC(C(=O)OC)N(C(=O)c2cccs2)C3=N1 (some centres not stated)	·	·	2.7	6.5	12.3	·	-4.0
CC(=O)Nc1ccc(NC(=O)Cn2c(=O)n(-c3ccc(C)cc3)c(=O)c3oc4ccccc4c32)cc1	6.0	3496	2.7	10.2	-0.3	-7.2	3.6
COC(=O)CCc1nc2c(C#N)c(-c3ccc(Cl)cc3)ccn2n1	11.2	3670	·	·	·	-17.6	·
CC(=O)Nc1ccc(OC(F)(F)Cl)cc1	8.1	2023	11.4	16.1	-2.3	-6.9	-9.4
N=c1sccn1Cc1ccccc1F	-3.2	3812	-0.3	-0.1	0.8	·	9.1
CC(NC(=O)c1cccc(S(=O)(=O)N(C)C)c1)c1nc2ccccc2[nH]1 (configuration not stated)	-5.7	4059	5.9	10.3	8.9	-18.4	7.4
COc1ccc(OCc2nnc(SCC(=O)NC3CC4CCC3C4)o2)cc1 (configuration not stated)	3.1	3690	-5.1	18.6	0.2	-6.8	4.6
CN(C)c1ccc(C(=S)N2CCOCC2)cc1	·	5593	1.9	5.0	7.1	-11.0	3.2
C=CCN(CC=C)Cc1c(C)[nH]c2c(C)c(C)ccc2c1=O	6.1	4535	1.5	5.0	0.0	-5.9	2.0
Cc1cc(C)nc(N/N=C/c2cccc([N+](=O)[O-])c2)n1	1.9	5539	·	·	·	-33.0	·
CCOc1ncccc1C(=O)OCC(=O)NCc1ccc2c(c1)OCO2	-2.7	4476	0.8	5.1	-2.8	-18.4	9.7
COc1ccc(-n2c(Cc3cccn3C)nnc2SCC(=O)Nc2cccc(F)c2)cc1	-14.7	6337	3.4	·	·	-7.5	-4.2

# Record cards (already shown). Values in the order: BJeLR lethal	Bead autofluor	RN4220 kill	Mtb hypoxia rep	Mtb hypoxia rep growth	PrP 5UTR inh	Sa ugtP lethal
# CN(C)c1ccc(C(=S)N2CCOCC2)cc1 is entered as ·	5593	1.9	5.0	7.1	-11.0	3.2
# O=C(Cc1ccccc1Cl)NCCCn1ccnc1 is entered as 3.9	6952	2.5	9.0	7.4	-1.7	16.3
# O=C(NN=C1CCCC1)c1cc(-c2ccc(F)cc2)nc2ccccc12 is entered as -9.2	3285	2.3	13.1	11.2	-9.8	8.3
# COc1ccc(OCc2nnc(SCC(=O)NC3CC4CCC3C4)o2)cc1 (configuration not stated) is entered as 3.1	3690	-5.1	18.6	0.2	-6.8	4.6
# CCOc1ncccc1C(=O)OCC(=O)NCc1ccc2c(c1)OCO2 is entered as -2.7	4476	0.8	5.1	-2.8	-18.4	9.7

# (further entries)
smiles	BJeLR lethal	Bead autofluor	RN4220 kill	Mtb hypoxia rep	Mtb hypoxia rep growth	PrP 5UTR inh	Sa ugtP lethal
CCCCN(CC)C(=O)c1cccc(Cl)c1	-1.4	3750	3.3	9.2	12.5	-9.3	2.1
O=C(CSc1nnc(NC(=O)C2CC(=O)N(c3ccccc3)C2)s1)NCC1CCCO1 (configuration not stated)	-2.6	5600	0.4	4.5	14.6	-8.0	3.5
O=S(=O)(CCc1nc2ccccc2[nH]1)c1ccc(Br)cc1	-19.2	2016	5.8	6.4	4.7	4.4	6.5
Cc1cc(C)c(NC(=O)C2CCCO2)c(C)c1 (configuration not stated)	1.8	5591	1.5	19.3	8.0	-22.8	2.0
CCOc1cccc(NC(=O)C2CC(=O)N(c3ccc(F)cc3)C2)c1 (configuration not stated)	-4.1	2660	3.6	10.0	4.6	-9.7	2.6
CCOc1ccccc1NC(=O)CN(c1ccc(Cl)cc1)S(C)(=O)=O	2.0	4061	5.3	11.1	14.7	-30.3	8.7
COc1ccc(-c2csc(/C(C#N)=C/Nc3ccc4c(c3)OCCO4)n2)cc1	-1.2	2266	-1.0	-4.9	1.8	-11.5	-1.7
C=CCn1c(SCCN)nnc1-c1cccc(S(=O)(=O)N2CCOCC2)c1	·	6052	6.8	9.7	-0.8	-21.0	7.9
COc1ccc2nc(C)cc(N/N=C/c3cccc(OC)c3O)c2c1	-7.5	4113	·	·	·	-9.4	·
Cc1c(C(C)(C)O)[nH]c2cc(C(F)(F)F)ccc12	-9.3	3579	-3.6	-2.7	-1.4	-19.6	-13.9
O=C(CSc1nc2ncccc2[nH]1)c1cccc([N+](=O)[O-])c1	-15.0	2168	2.0	5.8	1.3	-11.7	1.3
O=C(CC1CCOCC1)Nc1ccc(Cl)c(Cl)c1	8.0	3630	-13.5	4.2	7.1	-13.4	-0.3
c1ccc(NC2=Nc3ccccc3CS2)cc1	1.4	11064	6.4	6.7	2.8	-123.5	4.2
COc1ccc(S(=O)(=O)c2ccc(OCC3CO3)cc2)cc1 (configuration not stated)	5.5	3007	-0.1	0.7	-6.8	-61.3	1.8
Cc1c(O)c(=O)c2ccccc2n1C	1.6	3972	4.9	10.4	8.5	-21.7	-0.9

# Just BJeLR lethal (2 entries from above):
compound | BJeLR lethal
O=C(CSc1nc2ncccc2[nH]1)c1cccc([N+](=O)[O-])c1 | -15.0
O=C(CC1CCOCC1)Nc1ccc(Cl)c(Cl)c1 | 8.0

# (further entries)
smiles	BJeLR lethal	Bead autofluor	RN4220 kill	Mtb hypoxia rep	Mtb hypoxia rep growth	PrP 5UTR inh	Sa ugtP lethal
O=C(NC(NNc1ccc([N+](=O)[O-])cc1)(C(F)(F)F)C(F)(F)F)c1ccccc1Cl	-2.1	8330	27.8	4.4	6.9	-24.1	-13.2
CCc1ccc(NC(=O)CCNS(=O)(=O)c2cccc3nonc23)cc1	-17.2	8445	-1.2	-1.9	-1.5	-14.3	-9.5
CCOc1ccc(CN2CCN(Cc3c(C)nn(CC)c3C)CC2CCO)cc1 (configuration not stated)	9.0	4181	4.1	10.6	3.5	21.3	5.2
CCC(C(=O)OCC(=O)Nc1ccc(OC)cc1OC)c1ccccc1 (configuration not stated)	-11.7	3388	7.3	13.5	9.0	-5.1	8.2
C/C(=N\NC(=O)c1ccccc1C)c1cccc([N+](=O)[O-])c1	1.2	2824	·	·	·	-21.9	·
O=C1NC(=O)C2(Cc3ccccc3N3CCCC32)C(=O)N1 (configuration not stated)	4.4	11320	4.6	4.9	-0.5	-15.6	-4.5
CCOC(=O)C1CCCN(C2CC(=O)N(c3ccc(N4C(=O)CC(N5CCCC(C(=O)OCC)C5)C4=O)cc3)C2=O)C1 (configuration not stated)	2.4	2506	5.2	6.7	5.9	-16.0	7.7
Cc1ccc2nc(NC(=O)CSc3nc4c(c(=O)n3C)SC(C)C4)sc2c1 (configuration not stated)	2.6	2328	0.0	·	·	-3.0	-19.7
CCN1CCN(S(=O)(=O)c2ccc(Cl)c(C(=O)N(C)Cc3cccc(OC)c3)c2)CC1	4.9	·	3.6	-4.2	2.4	-18.0	2.8
CCOC(=O)c1cc2c(ccn2C)n1CC(=O)N1CCCC(C)C1 (configuration not stated)	-2.7	3245	4.3	5.2	4.8	-6.7	-3.1
CCN(CC)CCn1c(SCC(=O)NCc2ccccc2)nc2c(sc3ccccc32)c1=O	0.4	4270	-3.3	11.5	1.1	-30.1	8.3
O=C1Nc2ccccc2OC1CC(=O)N1CCOCC1 (configuration not stated)	1.3	5434	1.8	·	·	-13.7	8.7
O=C(NC(=S)NCc1ccc(-c2nc3ccccc3s2)cc1)c1ccco1	-15.4	2028	-5.1	-5.1	0.0	-99.5	-5.0
COc1ccc(C=NNC(=O)CNC(=O)C2COc3ccccc3O2)cc1[N+](=O)[O-] (configuration not stated)	·	·	5.5	-1.5	-4.1	·	6.4
